# Vaccinia pol inh – vaccinia E9 polymerase processive synthesis inhibition; AID 493162; 46,000 compounds, 0.94% hits; in vitro processive DNA synthesis, absorbance read-out; hits give low values; some inactives read as strong as hits; normalized absorbance, % (no concentration beside the values);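 active = replicate mean up to 90% and picked by the depositor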;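 note: 100% = median of the test wells of a plate; 100 nL library stock went into each well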
# * hit, by the source's call. Some of the compounds tested. The share of hits here may be higher or lower than overall.
SMILES	Vaccinia pol inh
O=C(O)CC(O)c1nc2ccccc2[nH]1 (stereo unspecified)	91.6
Cc1nc(SC(C(=O)c2ccccc2)c2ccccc2)nc2ccccc12 (stereo unspecified)	100.3
O=C(Oc1ccc(OC(F)(F)F)cc1)C1=Cc2cc(Cl)ccc2OC1	102.0
Cc1ccc(-c2cc(=O)[nH]c3ccccc23)cc1	102.0
Cc1ccc(Sc2ccc(C(=O)O)cc2NC=O)cc1	89.2
O=S(=O)(c1ccc(Cl)cc1)N(Cc1ccc(Cl)cc1)Cc1cccnc1	107.4
OC1=CONN1c1cccc2ncccc12	107.8
COC(=O)C(Cc1cc(Cl)ccc1Cl)SC#N (stereo unspecified)	99.1
O=C(CSc1nc2ccccc2o1)NCC(F)(F)F	98.1
CC1(C)CC(=O)C=C(NCC(=O)O)C1	101.4
Cc1ccc(N=Cc2ccc(F)c(F)c2)cc1C	100.4
CC1=C(NN(C)c2cccc(Cl)c2)C(=O)N(C2CCCCC2)C1	99.8

# Next part.
SMILES	Vaccinia pol inh
CC1(C)OC(=O)C1C(=O)O (stereo unspecified)	106.6
CCN(CC)Cc1cc(C(C)(C)C)oc1C(=O)O	96.8
N#Cc1ccc(-c2csc(N)n2)cc1	102.8
CS(=O)(=O)c1nc2ccccc2n1Cc1ccccc1	97.1
CC(C)(C)NC(=O)CSC1=C(C#N)C(c2ccco2)C2=C(CCCC2=O)N1 (stereo unspecified)	102.7
O=C(CSc1nc2ccccc2o1)Nc1ccc(Oc2ccccc2)cc1	101.0
Cc1cc(C)n2cc(CSc3nc4ccccc4[nH]3)nc2n1	99.6
CC1CCCN(C2CCN(Cc3ccccc3Cl)CC2)C1 (stereo unspecified)	100.1
O=C(CSc1nc2ccccc2[nH]1)Nc1ccccc1Br	96.3
NC(=O)c1ccccc1NC(=O)CC(c1ccccc1)c1ccccc1	104.3
Cc1ccc(NC(=S)Nc2ccccc2C)c(C)c1	100.5
Cc1noc(-c2ccc3c(c2)OCO3)c1I	102.2

# Carrying on.
SMILES	Vaccinia pol inh
Cn1cnc2c1c(=S)[nH]c(=O)n2Cc1ccccc1	99.4
CC1(C)Cc2snc(C(N)=O)c2C1	108.4
COC(=O)c1ccc(-c2ccco2)n1Cc1ccccc1	90.1
COC(=O)c1sccc1NS(=O)(=O)c1ccc(C(=O)OC)n1C	99.8
Cc1ccc(/C=N/c2sc3c(c2C(N)=O)CCC3)s1	100.1
O=C(NCCc1ccccc1)c1ccc2nc(-c3cccs3)c(-c3cccs3)nc2c1	100.4
O=C(O)CCC(=O)Nc1cccc(F)c1	101.1
NC(Cc1cc(I)c(Oc2ccc(O)c(I)c2)c(I)c1)C(=O)O (stereo unspecified)	99.9
CNC(C)[C@@H]1CC[C@@H](N)[C@@H](OC2[C@@H](N)C[C@@H](N)[C@H](OC3OC[C@](C)(O)[C@H](NC)[C@H]3O)[C@H]2O)O1 (stereo partly specified)	100.4
CC(=O)NS(=O)(=O)c1ccc(Br)cc1	100.1
COC(=O)c1ccc2c(=O)n(CCC3=CCCCC3)c(SCc3ccc(Cl)cc3)nc2c1	100.6
Cc1c(C(N)=O)cc([N+](=O)[O-])cc1[N+](=O)[O-]	101.4

# Random excerpt: three records from the list.
SMILES	Vaccinia pol inh
O=C(O)CCC(=O)Nc1cccc(F)c1	101.1
COC(=O)c1ccc2c(=O)n(CCC3=CCCCC3)c(SCc3ccc(Cl)cc3)nc2c1	100.6
CC(=O)NS(=O)(=O)c1ccc(Br)cc1	100.1

# Later entries.
SMILES	Vaccinia pol inh
O=C(/C=C/c1ccccc1)Oc1ccc2oc(=O)sc2c1	100.2
O=S1(=O)NC(=NCc2ccccc2)c2ccccc21	91.9
O=c1c2c(nc(NCCO)n1Cc1ccccc1)-c1ccccc1CC21CCCCC1	103.2
O=C(O)Cc1coc2ccc3ccccc3c12	100.4
Cc1noc(C)c1-c1nc(-c2cccc(C(F)(F)F)c2)no1	99.3
Cn1cccc1Cc1nnc(SCC(N)=O)n1C	99.8
CCN(CC)C(C)CN1c2ccccc2Sc2ccccc21 (stereo unspecified)	93.9
O[C@@H]1[C@@H](O)[C@H](Nc2ccccc2)OC[C@H]1O	97.8
O=C(O)c1cc2oc3ccccc3c3ccccc3oc2cc1C(=O)Nc1ccc(F)cc1	99.4
COc1ccc(Br)cc1S(=O)(=O)NCc1ccccc1	98.8
CC(C)(C)c1ccc(C(=O)Nc2ccc(S(N)(=O)=O)cc2)cc1	99.8
Fc1ccc(N2CCN(C3=Cc4ccccc4CC3)CC2)cc1	102.9

# Next section
SMILES	Vaccinia pol inh
O=C(NCc1noc2ccccc12)Nc1nccs1	107.1
COc1cccc(/C=C2/NC(=O)N(Cc3ccc(F)cc3)C2=O)c1	99.5
c1ccc2c(OCc3nc4ccccc4[nH]3)cccc2c1	99.3
CCOc1ccc(CC2C(=O)NC(=O)N(Cc3ccccc3)C2=O)cc1 (stereo unspecified)	97.3
COc1ccc(/C=C2/SC(=S)N(CCC(=O)O)C2=O)cc1	99.1
O=C(O)CSc1ccc2ccccc2c1Br	85.4*
O=C(COC(=O)c1n[nH]c2ccccc12)NC1CCCCC1	102.7
CCN1CCC(N(Cc2cccc(OC)c2)C(=O)NC23CC4CC(CC(C4)C2)C3)CC1	104.0
O=C(NCc1cc(F)cc2c1OCOC2)c1ccc2nonc2c1	108.2
CSc1cccc(NC(=O)c2ccc3snnc3c2)c1	62.6
Nc1ncc(-c2ccccc2)n1CC1CCCO1 (stereo unspecified)	103.0
CCOC(=O)c1ccc2[nH]c3c(c2c1)CCCC3C(=O)OCC (stereo unspecified)	100.1

# Following part
SMILES	Vaccinia pol inh
COC(=O)/C=C/C1=C(N)c2ccccc2C1(C#N)c1ccccc1 (stereo unspecified)	98.2
O=C(CC1(c2ccc(Cl)cc2)C(=O)c2ccccc2C1=O)N1CCCCC1	97.9
O=C(Nc1cc(Cl)cc(Cl)c1)c1cc(S(=O)(=O)N2CCCc3ccccc32)ccc1F	101.0
Oc1ccccc1-c1cc(-c2ccc3c(c2)OCO3)cc(-c2ccccc2)n1	99.7
O=C(O)c1ccc(COc2ccccc2)o1	98.6
O=C(NC1C=CS(=O)(=O)C1)c1ccccc1 (stereo unspecified)	99.8
Cc1nn(-c2ccccc2)c2sc(C(=O)N(C)C(C)C(O)c3ccccc3)cc12 (stereo unspecified)	100.1
Cc1ccc2[nH]c(=O)nc(-c3ccccc3)c2c1	102.3
FC(F)(F)c1ncncc1-c1nnnn1-c1ccccc1	83.3
CC(C)(C)C(=O)Oc1ccccc1OC(=O)c1ccccc1	100.4
COc1ccc(NC(=S)NCC2CCCO2)cc1 (stereo unspecified)	101.1
Cc1ccc(S(=O)(=O)N2CCOC2=O)cc1	100.7

# Continuation.
SMILES	Vaccinia pol inh
COc1cc2ccccc2cc1C(=O)OCC(=O)NC1CC1	96.8
CC(C)C(NS(=O)(=O)c1ccc2c(c1)C(C)(C)C(=O)N2C)C(=O)NCc1ccc(F)cc1 (stereo unspecified)	103.4
CC1(C)COC(=O)C1OC(=O)c1ccccc1C(=O)O (stereo unspecified)	100.2
Brc1ccc(OCc2nnc3n2CCC3)cc1	99.8
S=C(NCCN1CCOCC1)Nc1ccc(Cl)cc1	100.1
NNC(=O)c1cc(COc2c(Cl)cccc2Cl)on1	100.6
COc1ccccc1NC1CCCCC1NS(=O)(=O)c1ccccc1 (stereo unspecified)	101.3
CC(C)(C)NC(=O)c1sccc1C(=O)O	103.5
O=C(O)/C=C/c1ccc(Cl)cc1	91.4
COC(=O)C1C(=O)CC(C)(O)C(C(=O)OC)C1c1ccccc1 (stereo unspecified)	100.0
CNc1ccc(O)cc1	90.6
O=C(O)c1[nH]c2ccccc2c1C=NCc1ccccc1Cl	102.6

# The list continues.
SMILES	Vaccinia pol inh
Nc1ccc(NS(=O)(=O)c2ccccc2)cc1	99.5
O=C(CSc1cccc[n+]1[O-])N1c2ccccc2Sc2ccccc21	99.2
COc1cccc(C(=O)Nc2c3c(nn2-c2ccc(C)cc2)CS(=O)C3)c1 (stereo unspecified)	100.6
O=C1Nc2ccccc2C(=O)C1=Ic1ccccc1	103.2
c1ccc(-c2nnc(N3CCCC3)nc2-c2ccccc2)cc1	82.6
COC(=O)c1ccc(Oc2coc3cc(O)ccc3c2=O)cc1	91.9
COc1ccc(Cc2nccc3cc(OC)c(OC)cc23)cc1OC	97.0
CCOc1ccccc1NC(=O)COC(=O)c1cc(Cl)ccc1Cl	101.8
COc1ccc(/C=C/C(=O)NCc2ccco2)cc1OC	89.0
Oc1ccc(CN2CCN(c3ccc(F)cc3)CC2)c2cccnc12	95.0
COC(=O)C(CC(C)C)NC(=O)c1cc(-c2ccccc2)nc2ccccc12 (stereo unspecified)	99.9
CN(CCc1ccccn1)C(=O)c1cc(-c2cccs2)nc2ccccc12	99.2

# Additional entries:
SMILES	Vaccinia pol inh
CC(=O)Nc1nonc1Nc1csc(CC#N)n1	98.3
CCCc1nnc(NC(=O)c2ccccc2)s1	99.6
Cc1ccc(-n2ncc3c(NC4CCCCC4)ncnc32)c(C)c1	98.5
Cc1c(C(=O)N2CCCCCC2)sc2ncnc(N3CCN(c4ccccc4)CC3)c12	106.0
N#Cc1ccc(-c2ccc3c(c2)OCCO3)[nH]c1=S	93.9
O=C(Cn1ncc2c3ccccc3n(Cc3ccccc3)c2c1=O)NC1CC1	103.0
O=C(O)CCCC(=O)Nc1ccccc1SCc1noc(-c2cccs2)n1	99.2
O=C(NCC1CCCO1)c1cn(-c2ccccc2)nc1-c1cccs1 (stereo unspecified)	93.4
CC(C)(COC(=O)c1ccccc1)N=C1NS(=O)(=O)c2ccccc21	97.4
COc1ccc(CC(=O)Nc2ccc(O)c(-c3nc4ccccc4o3)c2)cc1	99.9
COc1ccc(CN(Cc2cc(OC)c(OC)c(OC)c2)C(=O)C(C)(C)C)cc1	94.9
COCCC(=O)C1=CSC2=C(C(=O)CC(C)(C)C2)C1c1ccncc1 (stereo unspecified)	101.1

# New compounds follow:
SMILES	Vaccinia pol inh
Cc1ccc(OC(=O)c2sc3nc(-c4ccc(Cl)cc4)nn3c2C)cc1	100.8
O=C(NCc1ccco1)c1ccc(Cn2c(SCc3ccccc3)nc3ccncc32)cc1	103.7
CN(C)Cc1c2ccccc2cc2ccccc12	47.4*
O=C(CC1C(=O)N(c2ccccc2)C(=S)N1NC(=O)c1ccncc1)NCCc1ccccc1 (stereo unspecified)	94.0
O=C1NC(=S)S/C1=C\C=C\c1ccccc1	86.2*
CCOC(=S)SCc1cn2ccc(C)cc2n1	100.1
O=C(O)CN1Cc2ccccc2C1=O	70.8
COc1cc(C(=O)O)ccc1OC(C)C	92.7
N#CC(c1cccc(C(F)(F)F)c1)c1cccc(C(F)(F)F)c1	101.8
COc1ccccc1C(=O)CSc1ccc(Cl)cc1	80.4
O=C(c1cccc(Br)c1)N1CCc2ccccc2C1	102.0
CC(C)CCNC(=O)C1c2ccccc2Oc2ccccc21	100.2

# (more compounds)
SMILES	Vaccinia pol inh
Cc1cccc(Nc2cc(=O)[nH]c(=O)[nH]2)c1C	104.9
CN(C)S(=O)(=O)c1cccc(C(=O)N2CCc3ccccc3C2)c1	99.8
CCCn1c(CNC(=O)CC)nc2ccccc21	105.8
Cc1sc2nc(CC#N)[nH]c(=O)c2c1C	89.3
CC1=Nc2cc(C(=O)NCc3ccc(C)cc3)ccc2Sc2ccccc21	101.3
CC(C)(C)c1ccc2c(c1)CN(C1CCCCC1)CO2	98.5
Nc1nonc1NC(=O)CSC1=NCCS1	98.4
Cc1cc(C)n2cc(CN)nc2n1	89.8
N#Cc1cc(-c2ccccc2)c[nH]c1=O	101.9
CCCn1cc(SCC(=O)Nc2cc(C)on2)c2ccccc21	98.9
COc1ccc(-c2[nH]ncc2C(=O)NCCC(C)C)cc1	102.1
Oc1[nH]c2ccccc2c1C=Nc1cccc(Cl)c1	99.5

# Later entries:
SMILES	Vaccinia pol inh
CC(C)CC(=O)Nc1c(-c2ccc(F)cc2)nc2ccccn12	102.2
Cc1ccc(S(=O)(=O)c2c(C)cc(C)[nH]c2=O)cc1	90.7
CCCCC(C(N)=O)C1=NC(C)(C)Cc2ccccc21 (stereo unspecified)	100.1
CC(C)(C)c1ccc(NC(=O)c2ccc(C(C)(C)C)s2)cc1	100.8
COc1ccc(CC(=O)Nc2nnc(SCC(=O)c3ccccc3)s2)cc1	98.3
O=C(COC(=O)c1ccc(Cl)cc1NC(=O)c1ccc(Cl)cc1)c1ccccc1	104.2
O=C(NC1CCCCC1)Oc1ccccc1-c1nnc2n1CCCCC2	102.0
COc1ccc(N2C(=O)/C(=C\c3ccc(C(C)C)cc3)C(=O)NC2=S)cc1	99.7
COc1cccc(-c2nnc3sc(NC(C)=O)nn23)c1	98.7
COc1ccc(S(=O)(=O)NC2CCCCC2)cc1	98.3
O=C(c1ncoc1-c1ccccc1)N(Cc1ccccn1)Cc1ccccn1	96.5
N#Cc1ccc2c(c1)N(Cc1c(F)cccc1Cl)C(=O)C1CCCN21 (stereo unspecified)	103.2

# Further entries follow:
SMILES	Vaccinia pol inh
CCOC(=O)N1CCC(NC(=O)c2ccc3c(c2)sc2nc(-c4ccc(OC)cc4)cn23)CC1	95.5
CC(C)(C)C(=O)NC1CCSC1=O (stereo unspecified)	100.1
O=C(Nc1ccsc1C(=O)O)c1ccccc1	103.1
CCc1ccc(/C=C2\CCc3ccccc3C2=O)cc1	103.8
Cc1ccc(C(C)C)c(OCCNC(=O)Nc2ccc(Br)cc2)c1	101.1
Cc1ccc(S(=O)(=O)C[C@H]2O[C@@H](n3cc(I)c(=O)[nH]c3=O)C[C@@H]2O)cc1	98.0
CCOC(=O)C1=C(N)c2ccccc2CC1(C)CC (stereo unspecified)	94.1
COc1cc(OC)c(NC(=O)CCc2ccccc2)cc1Cl	96.6
O=c1[nH]cnc2c1cnn2-c1ccc2ccccc2c1	87.0
O=c1cc(-c2ccccc2)nc(SCCOc2ccccc2F)[nH]1	100.8
CCC(Sc1nc2sc(C(=O)OC)c(C)c2c(=O)n1N)C(=O)Nc1cccc(OC)c1 (stereo unspecified)	102.7

# Screens deposited in PubChem by ICCB-Longwood Screening Facility, Harvard Medical School.
